Arbovirus anti = arbovirus infection inhibition; arbovirus infection cell-based antiviral screen; inhibition, % at 10 µM; 200,000 compounds, 0.37% hits; AID 1251;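 active = inhibition from about 30%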;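 also: bluetongue infection of BSR cells; cell survival read as ATP light after 72 h; 0% = infected wells without compound and 100% = uninfected wells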
Mtb H37Rv = M. tuberculosis H37Rv growth inhibitors, H37Rv strain (AID 1626); M. tuberculosis H37Rv growth inhibition; higher % means a stronger effect; inhibition, % at 10 µM, or IC50 in µM where a hit was titrated; 220,000 compounds, 0.95% hits;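 active = confirmed in a dose series; inconclusive = inhibition above 80% but not taken into the dose series; inactive = below 80% or under 30% at every dose of the series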;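 also: bacteria incubated seven days before Alamar blue readout; 0% = bacteria only wells and 100% = bacteria with antibiotic wells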
YopH PTP inh = blocks Yersinia enterocolitica YopH tyrosine phosphatase. fluorescence Ex485/Em525. inhibition, %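 (about 10 µM by stock and volumes)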. 140,000 compounds, 0.16% hits. AID 898;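 active = inhibition of 50% or more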;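 also: controls were vehicle for no effect and minimum signal wells for full effect; inactives centre near -20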
Mtb bLac sens = beta-lactam sensitization of Mtb H37Rv. M. tuberculosis H37Rv growth with meropenem, percent inhibition; hits of this screen are not shown here. inhibition, % at 25 µM. 330,000 compounds, 0.27% hits. AID 434955;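 active = about 74% or more and at least 40 points above the plate without the antibiotic, then above 30% in a dose series; inconclusive = first-round hits that could not be retested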;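 also: growth measured after seven days incubation then overnight dye step; 0% = bacteria only wells and 100% = bacteria with antibiotic; twin plates without the antibiotic show which effects depend on it; some results filed as inactive read as strong as hits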
RecA splice inh = inhibitors of M. tuberculosis RecA intein splicing; P9WHJ3; cell-free RecA intein splicing, fluorescence; inhibition, %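 (about 9 µM by stock and volumes)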; 290,000 compounds, 0.75% hits; AID 2221; in the data active = inhibition above about 30%; inconclusive = no clear call, values can overlap the other calls;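 also: 0% = vehicle wells and 100% = reference inhibitor control wells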
Target sequence (P9WHJ3 whole entry, looked up, canonical isoform): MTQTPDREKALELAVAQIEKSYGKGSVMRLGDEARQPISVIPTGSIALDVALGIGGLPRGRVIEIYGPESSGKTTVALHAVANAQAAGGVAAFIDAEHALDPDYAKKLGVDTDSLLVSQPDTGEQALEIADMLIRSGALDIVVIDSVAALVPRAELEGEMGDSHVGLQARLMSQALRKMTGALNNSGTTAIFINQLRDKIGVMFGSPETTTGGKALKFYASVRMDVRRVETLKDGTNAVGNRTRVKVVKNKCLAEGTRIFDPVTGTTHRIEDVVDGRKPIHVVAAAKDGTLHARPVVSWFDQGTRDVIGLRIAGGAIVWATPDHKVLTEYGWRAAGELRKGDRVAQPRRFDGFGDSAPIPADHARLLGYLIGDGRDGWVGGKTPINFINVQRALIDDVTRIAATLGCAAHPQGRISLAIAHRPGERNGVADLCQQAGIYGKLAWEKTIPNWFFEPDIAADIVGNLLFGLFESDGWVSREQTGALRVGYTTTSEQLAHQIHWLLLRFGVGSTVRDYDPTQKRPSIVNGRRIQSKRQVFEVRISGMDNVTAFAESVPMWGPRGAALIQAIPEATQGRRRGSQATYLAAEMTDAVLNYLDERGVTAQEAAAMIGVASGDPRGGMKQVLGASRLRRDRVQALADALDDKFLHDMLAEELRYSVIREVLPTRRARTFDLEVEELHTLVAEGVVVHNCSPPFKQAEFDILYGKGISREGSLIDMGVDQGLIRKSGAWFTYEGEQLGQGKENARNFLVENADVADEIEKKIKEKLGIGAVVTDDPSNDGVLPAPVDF
Arbovirus anti repeat = also measured in Arbovirus anti; calls as there; inhibition, %; measured here: 10K subset replicate screen; many hits read low in the repeat;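 first of two repeat runs on a subset; 0% = infected and 100% = uninfected wells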
An asterisk follows results filed as active; ? = inconclusive; / = not tested or not shown.

SMILES	Arbovirus anti	Mtb H37Rv	YopH PTP inh	Mtb bLac sens	RecA splice inh	others
COc1ccccc1CCNC(=O)C1CCC(=O)N(Cc2ccccc2OC)C1 (centres undefined)	/	/	/	-13.6	1.7
CCCc1nc2c(c(=O)c3ccccc3n2C)c(=O)n1-c1cc(C)cc(C)c1	/	7.8%	/	0.2	2.9
CCn1c2ccc(F)cc2c2nnc(NN)nc21	-13.2	4.1%	-2.3	-1.2	-6.2
CCOC(=O)c1nc(C)sc1-c1ccnn1S(=O)(=O)c1cccc(Cl)c1	/	6.0%	/	1.2	4.9
Cc1n[nH]c(C)c1N1C(=O)c2cccc3cc(Br)cc(c23)C1=O	3.1	-5.0%	-21.1	7.3	0.3	Arbovirus anti repeat=2.3
COc1ccc(CCCc2nnc(SCc3nc4ccccc4c(=O)[nH]3)n2C)c(C)c1	/	-5.3%	/	-3.2	-1.4
COC(=O)/C=C1/S/C(=N/N=C/c2ccco2)NC1=O	/	-5.4%	/	93.6	/
COc1ccccc1CNC(=O)c1cccc(C)c1[N+](=O)[O-]	-2.8	6.6%	-32.8	8.5	-0.3
COc1ccc(Br)cc1CN(C)C(C)C(=O)Nc1cccc(C(C)=O)c1 (centres undefined)	-3.4	-1.1%	/	10.8	4.6
CNC(=O)CSc1nnnn1CCCOC	0.0	-11.1%	-30.8	3.1	1.4
CC(C)c1cccc(C(C)C)c1NC(=O)COC(=O)C1CCC1	/	/	/	-13.6	-2.8
Cc1ccc(C)c(/C=C2\N=C(c3ccccc3F)OC2=O)c1	/	/	/	12.9	-0.7
CCn1c(SCC(=O)Nc2ccc3c(c2)OCCO3)nnc1-c1cccnc1	/	/	/	8.5	0.3
CCN(CC)CCCNC(=O)CSc1nc(-c2cccs2)cc(C(F)(F)F)n1	-2.4	-3.5%	/	2.4	-2.3
O=c1cc(CS(=O)(=O)c2ccccc2)nc(-c2ccncc2)[nH]1	1.3	-4.5%	/	4.0	-3.7
CSc1ccccc1OCc1cc(C(=O)N(C)Cc2ccncn2)no1	/	/	/	-7.4	1.0
Cc1ccc(CNC(=O)c2cc3c(=O)n(C)c4ccccc4c3n2C)o1	-0.6	-6.4%	-36.3	-1.7	0.8	Arbovirus anti repeat=0.9
NC1=NC2=C(CCCC2)C2(CCCCC2)S1	-22.6	2.2%	-16.1	4.2	/
CCOC(=O)CSCc1cn2cc(Cl)ccc2n1	12.2	4.3%	-13.6	/	-1.5
COc1ccc(/C=C(\C#N)C(=O)Nc2cc(C)c(Cl)cc2OC)cc1O	/	-5.3%	/	2.5	-5.7
CCCCCNC(=O)c1ccc2c(=O)n(CCCN3CCCC3=O)c(=S)[nH]c2c1	-7.7	7.0%	/	-5.5	-0.8
CC1(C)N=C(N)N=C(N)N1c1ccc(OCCCOc2ccccc2)c(Cl)c1	/	7.6%	/	40.0	6.3
CC1(C)CC2CC(C)(CN2S(=O)(=O)c2ccc(C(=O)Nc3ccc(S(=O)(=O)N4CCOCC4)cc3)cc2)C1 (centres undefined)	-6.3	6.7%	-30.9	0.5	0.1
CCOC(=O)C1C(=O)CC(=O)CC1CC(C)SCC (centres undefined)	14.3	-12.7%	3.6	-16.3	2.4
COc1ccc(Cn2c(C(C)C)nc3sc4ccccc4c(=O)c3c2=O)cc1	/	17.7%	/	78.3	2.9
COc1ccccc1NC(=O)/C(C#N)=C/c1ccc(OCCN2CCOCC2)c(OC)c1	/	/	/	?	-0.1
CCOC(=O)/C(C#N)=C/C=C1/C=CC=CN1C	/	-7.9%	/	-21.4	4.3
O=C(NCCN1C(=O)S/C(=C\c2ccccc2F)C1=O)C1CCCN1C(=O)c1cccs1 (centres undefined)	4.5	3.3%	-35.2	-6.6	2.9
CC(Sc1n[nH]c(N)n1)C(=O)NC1CCCCC1C (centres undefined)	/	/	/	-9.3	0.6
N/C(=N\OC(=O)c1ccc(Cl)cc1)c1[nH]ncc1Br	/	-8.8%	/	8.7	2.9
O=C(CSc1nnc(CNC(=O)c2cccs2)o1)Nc1ccccc1F	/	/	/	-1.3	-5.5
Cc1cc2ncc(Cl)nc2cc1C	-0.9	-3.3%	-20.3	5.3	-0.4
O=C(NCC1CCCO1)c1nn2c(C(F)(F)F)cc(-c3ccco3)nc2c1Cl (centres undefined)	/	/	/	3.2	-4.1
COc1[nH]c2ccc(F)cc2c1C(=O)OCC1CCN(CCNS(C)(=O)=O)CC1	/	-5.6%	/	0.8	1.1
COc1ccc(-c2ccc(C(C)=O)cc2)cc1[C@H]1[C@H]2C=CC[C@@H](C)[C@@H]2C(=O)N1Cc1ccccc1	/	12.2%	/	9.6	3.5
CN(C)CCCN(C(=O)c1ccc(S(=O)(=O)N2CCCCC2)cc1)c1nc2cc3c(cc2s1)OCO3	/	/	/	-4.3	0.5
COc1cccc(NC(=O)c2ncc(Cl)c(Cl)c2Cl)c1	5.5	11.6%	/	81.6	-0.1
S=C(Nc1ccc(Cl)cc1)N1CCN(Cc2ccccc2)CC1	15.3	-0.3%	/	-6.8	-3.8
CCn1cc(/C=N/NC(=O)COc2cccc3cccnc23)c2ccccc21	-1.0	0.1%	-34.7	-2.7	2.3
O=C1Nc2cc(C(=O)N3CCC(N4CCCCC4)CC3)ccc2S/C1=C\c1ccccc1	/	/	/	79.1	1.2
Cc1csc(NC(=O)CSc2ccc(-c3ccccn3)nn2)n1	-36.7	5.48µM*	/	99.7	2.2
COc1ccc2c(c1)CCc1c(C(=O)NC3CCCCC3)noc1-2	1.5	4.8%	-27.9	/	1.5
O=C(Nc1ccc(Cl)cc1Cl)N1CCN(c2ncccn2)CC1	-7.4	7.2%	/	-2.1	-0.1
CN=C(SCc1cc2c(cc1Cl)OCO2)c1c(O)n(C)c(=O)n(C)c1=O	-4.5	-0.5%	-35.5	6.8	7.5
Cc1ccc(C)c(NC(=O)CN(C)C(=O)C2CCN(C(=O)Nc3ccccc3)CC2)c1	/	/	/	-1.0	-4.2
CN(C)S(=O)(=O)c1cccc(N=C2NN=C(c3ccccc3)CS2)c1	-9.0	0.7%	-10.4	5.2	/
COc1cccc(S(=O)(=O)NCc2ccc(C(=O)Nc3cccc(Cl)c3)cc2)c1	-3.7	13.2%	-7.5	3.1	15.3
Cc1ccc(SCc2cc(=O)c3c(=O)n(-c4ccccc4)[nH]c3[nH]2)cc1	-3.3	2.7%	/	-5.2	2.6
Nc1ccc(-c2nc3ccccc3s2)cn1	/	/	/	7.5	-1.1
COc1ccc(OCC(=O)Nc2cc3c(cc2C(=O)O)OCCCO3)cc1	/	/	/	66.5	0.6

Reprinted at random: 2 compounds from above, in no set order.
SMILES	Arbovirus anti	Mtb H37Rv	YopH PTP inh	Mtb bLac sens	RecA splice inh	others
O=C(Nc1ccc(Cl)cc1Cl)N1CCN(c2ncccn2)CC1	-7.4	7.2%	/	-2.1	-0.1
COc1cccc(S(=O)(=O)NCc2ccc(C(=O)Nc3cccc(Cl)c3)cc2)c1	-3.7	13.2%	-7.5	3.1	15.3

Next section
SMILES	Arbovirus anti	Mtb H37Rv	YopH PTP inh	Mtb bLac sens	RecA splice inh	others
CCN(CC)S(=O)(=O)c1ccc(C(=O)N(c2ccc(C)cc2)C2C=CS(=O)(=O)C2)cc1 (centres undefined)	5.0	3.0%	/	-12.4	/
CCCc1nnc(NC(=O)CC(=O)Nc2ccccc2C(=O)O)s1	5.5	-9.9%	-55.7	-8.6	-1.8
c1ccc(CN2CCN(c3nc4ccccc4s3)CC2)cc1	/	/	/	7.5	3.1
COc1cc(CNCCc2c[nH]c3ccccc23)cc(Cl)c1OCC(N)=O	10.8	1.0%	/	0.7	0.2
COc1ccc(S(=O)(=O)N2CCCC2CNC(=O)C(=O)NC2CCCCCC2)cc1 (centres undefined)	/	/	/	6.8	-0.6
Fc1cccc(/C=N/Nc2nncc3ccccc23)c1	/	/	/	1.9	-1.3
COC(=O)c1sc(-c2ccccc2)cc1NC(=O)c1cc(OC)cc(OC)c1	-17.5	-1.2%	-17.7	5.3	-1.0
CC(=O)Nc1ccc(S(=O)(=O)N[C@H](C(=O)O)C(C)C)cc1	3.7	-3.4%	-22.7	-0.9	0.5
COc1cc(OC)cc(C(=O)N/N=C2/SCC(=O)N2Cc2ccco2)c1	23.2	-1.5%	/	-1.9	-0.1
COc1ccc(N(CC(=O)N2CCCC2)S(=O)(=O)c2ccc(NC(C)=O)cc2)cc1	/	/	/	-2.1	4.4
O=C(NC1(C(F)(F)F)NC(=O)N(Cc2cccnc2)C1=O)c1ccccc1Cl (centres undefined)	-2.1	-4.9%	5.7	6.5	-0.5
Nc1cc(N2CCNCC2)ccc1[N+](=O)[O-]	-7.5	3.5%	-12.3	-1.8	1.6
CCN1CCN(C(=O)c2ccc3c(=O)n(C4CCCC4)c(=S)[nH]c3c2)CC1	-11.6	-6.0%	0.5	3.4	-3.4
NC(=O)CC(NC(=O)Cc1cccc2ccccc12)c1ccc(NCc2ccccc2)c([N+](=O)[O-])c1 (centres undefined)	/	-1.4%	/	-17.9	0.6
CN(c1ccccc1)S(=O)(=O)c1ccc(Cl)c(C(=O)NC2=NCCS2)c1	12.7	-0.7%	/	-0.3	2.1
Cn1c(=O)c2c(nc(CN3CCc4ccccc4C3)n2Cc2ccc(Cl)cc2)n(C)c1=O	1.3	1.1%	-24.4	6.3	-5.8
COc1ccc(OC)c(C2C=C(c3ccc(C)c(C)c3)Nc3nnnn32)c1 (centres undefined)	22.5	6.7%	/	4.7	10.4
O=C(NCc1cccs1)C1CCN(c2ccc(S(=O)(=O)N3CCOCC3)cc2Cl)CC1	-18.1	-1.9%	-50.1	-5.2	3.1
CN(Cc1ccc(OC(F)F)cc1)C(=O)c1ccc2c(=O)n3c(nc2c1)CCC3	/	/	/	-4.4	0.6
Cc1cc2c(s1)CCCCC(=O)N2	13.0	-2.3%	-27.9	-5.8	-1.4
Cc1cccc(NC(=O)CN2C(=O)N/C(=C/c3cc(C)n(-c4cccnc4)c3C)C2=O)c1	-3.7	0.0%	/	-3.4	-2.7
NC(=O)C(c1ccccc1)c1ccc(C(=O)c2ccccc2)cc1 (centres undefined)	/	/	/	1.2	-2.5
COc1ccc(COC(=O)C2CCN(S(=O)(=O)c3ccc(F)cc3)CC2)cc1	/	/	/	-12.0	1.7
COc1ccc(NC(=O)c2cc(-c3cc(C)c(C)cc3O)n[nH]2)c(OC)c1	/	/	/	-1.4	-0.3
Cn1c(NNC(=O)c2cccc3ccccc23)cc(=O)n(C)c1=O	4.6	-1.8%	/	-3.5	-3.3
COc1cccc(-n2nc(C(=O)N3CCC4(CC3)OCCO4)c3ccccc3c2=O)c1	-2.8	7.2%	-17.5	0.2	/
COC(=O)c1c(N2C(=O)CC(Sc3ccccc3C(=O)O)C2=O)sc(C)c1C (centres undefined)	-0.5	2.1%	/	0.9	4.1
O=C(c1cccc(S(=O)(=O)N2CCc3ccccc3C2)c1)N1CCN(c2ccc(O)cc2)CC1	-27.2	8.1%	-23.5	-7.4	1.0
COc1ccc(CNC(=O)C2CCCN(S(=O)(=O)c3c(C)noc3/C=C/N(C)C)C2)cc1 (centres undefined)	/	/	/	0.4	-1.3
COCC(=O)N(Cc1cc2ccccc2[nH]c1=O)c1ccc(OC)cc1	5.8	-2.8%	-27.0	-2.9	-3.3
CCn1nc(NS(=O)(=O)c2ccccc2)c2cc3cc(C)ccc3nc21	/	/	/	-2.6	-1.2
FC(F)(F)c1cccc(NC(=S)Nc2ccc(Cl)c(Cl)c2)c1	/	?	/	95.0	0.0
O=C(NCc1ccccn1)c1ccc(=O)oc1	-5.9	-0.5%	-28.1	-1.7	-1.4
CCN(CC)CCN1C(=O)C(=O)/C(=C(/O)c2c(C)[nH]c(C(=O)OC)c2C)C1c1cccnc1 (centres undefined)	8.1	-9.2%	-50.4	-5.0	0.4
Fc1ccc(-c2nnc3ccc(N4CCCC4)nn23)cc1	4.6	9.5%	-31.9	2.6	0.2	Arbovirus anti repeat=2.5
CCc1ccc(NC(=O)Cn2nnc(C(=O)NCc3ccc4c(c3)OCO4)c2N)cc1	/	/	/	-0.8	-0.5
COc1ccc(Cl)cc1C(=O)Nc1ccc(NC(=O)c2ccco2)cc1	-0.9	-2.8%	-51.6	-5.0	-1.2
CN(C)S(=O)(=O)c1ccc(N2CCCC2)c(C(=O)NNC(=O)COc2ccccc2Cl)c1	/	/	/	-3.8	-4.6

Molecules listed so far that contain bromine, in the order listed:
SMILES	Arbovirus anti	Mtb H37Rv	YopH PTP inh	Mtb bLac sens	RecA splice inh	others
Cc1n[nH]c(C)c1N1C(=O)c2cccc3cc(Br)cc(c23)C1=O	3.1	-5.0%	-21.1	7.3	0.3	Arbovirus anti repeat=2.3
COc1ccc(Br)cc1CN(C)C(C)C(=O)Nc1cccc(C(C)=O)c1 (centres undefined)	-3.4	-1.1%	/	10.8	4.6
N/C(=N\OC(=O)c1ccc(Cl)cc1)c1[nH]ncc1Br	/	-8.8%	/	8.7	2.9

These rows are one share of the data. The share of hits here may be higher or lower than overall.
